# From PubChem BioAssay
# HPGD block – blocks human HPGD enzyme activity; P15428; purified HPGD, NADH fluorescence kinetic, PGE2 substrate; Potency, µM, inactives show at the top dose activity change, negative = inhibition, usual class: inhibitors; actives 4.3% (n = 150,000); active = well fitted inhibition curve with a large enough effect (not every such curve was filed as active); inconclusive = small, poorly fitted or top-dose-only effect, or another doubt; inactive = no such curve, though single readings can be large or run the other way;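 further: top concentration of the series not given in the record; plate controls included wells without enzyme; inactives centre near -10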
# Target sequence (P15428 whole entry, looked up): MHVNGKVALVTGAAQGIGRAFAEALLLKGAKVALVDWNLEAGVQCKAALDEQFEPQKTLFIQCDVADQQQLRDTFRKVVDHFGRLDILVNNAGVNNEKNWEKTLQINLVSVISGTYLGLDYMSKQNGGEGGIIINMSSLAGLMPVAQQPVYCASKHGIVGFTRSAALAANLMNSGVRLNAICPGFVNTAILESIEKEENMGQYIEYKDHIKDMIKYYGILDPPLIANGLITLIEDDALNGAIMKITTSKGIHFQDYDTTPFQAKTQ
#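 NADH formation kinetics: reaction with 30 uM PGE2 and 1 mM NAD+ (final), 20 nM enzyme, Tris-HCl pH 8 with Tween 20, after 15 min compound preincubation at room temperature. Fluorescence change, last versus first of five reads.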
# An asterisk follows results filed as active; ? = inconclusive. On the % scale 0 is the no-effect control and ±100 the full control effect; potency means the concentration at half of the fitted maximal effect. A portion of the library; count on the stated rates, not on these rows.
HPGD block | SMILES
-11.4% | Oc1c(C(c2cccs2)N2CCN(c3cccc(Cl)c3)CC2)sc2ncnn12 (stereo unspecified)
-2.7% | CC(=O)N1CC2(C)CN(C(C)=O)CC(C)(C1)C2O (stereo unspecified)
-5.1% | CC1=NN(C(=O)c2csc(C)c2)C(O)(C(F)(F)F)C1 (stereo unspecified)
? | CN(C)CCN(C(=O)/C=C/c1cccs1)c1nc2c(F)cc(F)cc2s1
-5.2% | CC(CC(=O)Nc1cc(C(F)(F)F)ccc1Cl)c1ccccc1 (stereo unspecified)
-3.8% | Cc1ccccc1C(=O)O/N=C(\N)c1ccncc1
-3.3% | COC(=O)C1=C(C)N=C2SC(C)C(=O)N2C1c1cccc(F)c1 (stereo unspecified)
-0.9% | CCc1nnc(NC(=O)C2CCCN2S(=O)(=O)c2ccc(F)cc2)s1 (stereo unspecified)
1.4% | O=C(CN(C1CCCCC1)S(=O)(=O)c1ccc(Cl)cc1)NCc1ccncc1
-7.2% | COc1ccc(NC(=O)CCn2cccc2)cc1
? | CCN(CC)c1ccc(/C=N/n2nnnc2N)c(O)c1
-20.1% | CO/N=C/NC(=O)Cc1cn(-c2ncc(C(F)(F)F)cc2Cl)c2ccccc12
-5.4% | O=[N+]([O-])c1ccc(N2CCOCC2)cc1NC(c1ccccc1)c1ccccc1
-5.6% | Cc1cc(C(F)F)n2nc(C(=O)Nc3cccnc3Cl)nc2n1
-7.6% | CC(C)Cc1cc(C(=O)NCc2cccs2)no1
14.1µM* | Cc1ccc(C(=O)c2coc3cc([N+](=O)[O-])c(O)c([N+](=O)[O-])c23)cc1
-16.3% | COc1cccc(C(=O)Nc2cccc(C(C)=O)c2)c1
-2.9% | CCOc1cc(Br)c(C(=O)O)cc1OCC
0.8% | Cc1ccc(NC(=O)CSc2nccn2C)cc1S(=O)(=O)N1CCOCC1
-28.7% | COc1ccc(/C=N/NC(=O)c2cc(Br)ccc2O)cc1Cn1cc(Cl)cn1
-10.2% | O=C(Cn1nnc(-c2ccccc2Cl)n1)N1CCN(S(=O)(=O)c2ccc(Cl)cc2)CC1
-3.1% | O=C(NC(=O)c1ccccc1)NC(=O)c1ccccc1
-15.6% | O=C(CN1CCCCCC1)Nc1ccc(Br)cc1Br
-22.4% | c1ccc(CCNc2ccc3nncn3n2)cc1
-1.4% | O=C(CN(c1cccc(C(F)(F)F)c1)S(=O)(=O)c1ccccc1)N1CCOCC1
-14.6% | Cc1ccc(-c2csc(=S)n2CC(=O)OCC(=O)NC(C)C(C)C)cc1 (stereo unspecified)
-16.3% | CCOC(=O)c1sc2nc(SC)nc(-c3ccc(Cl)cc3)c2c1N
-3.8% | COc1ccc(C(=O)OCC(=O)Nc2ccc(OC(F)F)cc2)c(OC)c1
-17.5% | CCn1c(CSc2nnc(-c3cccnc3)n2-c2ccccc2C)nc2cc(C(=O)O)ccc21
-0.5% | CN1CCN(CC(O)COCc2ccc3c(c2)OCO3)CC1 (stereo unspecified)

# Of the compounds above, these contain a carbonyl joined to an NH by a bond outside any ring:
HPGD block | SMILES
-5.2% | CC(CC(=O)Nc1cc(C(F)(F)F)ccc1Cl)c1ccccc1 (stereo unspecified)
-0.9% | CCc1nnc(NC(=O)C2CCCN2S(=O)(=O)c2ccc(F)cc2)s1 (stereo unspecified)
1.4% | O=C(CN(C1CCCCC1)S(=O)(=O)c1ccc(Cl)cc1)NCc1ccncc1
-7.2% | COc1ccc(NC(=O)CCn2cccc2)cc1
-20.1% | CO/N=C/NC(=O)Cc1cn(-c2ncc(C(F)(F)F)cc2Cl)c2ccccc12
-5.6% | Cc1cc(C(F)F)n2nc(C(=O)Nc3cccnc3Cl)nc2n1
-7.6% | CC(C)Cc1cc(C(=O)NCc2cccs2)no1
-16.3% | COc1cccc(C(=O)Nc2cccc(C(C)=O)c2)c1
0.8% | Cc1ccc(NC(=O)CSc2nccn2C)cc1S(=O)(=O)N1CCOCC1
-28.7% | COc1ccc(/C=N/NC(=O)c2cc(Br)ccc2O)cc1Cn1cc(Cl)cn1
-3.1% | O=C(NC(=O)c1ccccc1)NC(=O)c1ccccc1
-15.6% | O=C(CN1CCCCCC1)Nc1ccc(Br)cc1Br
-14.6% | Cc1ccc(-c2csc(=S)n2CC(=O)OCC(=O)NC(C)C(C)C)cc1 (stereo unspecified)
-3.8% | COc1ccc(C(=O)OCC(=O)Nc2ccc(OC(F)F)cc2)c(OC)c1

# The results go on:
HPGD block | SMILES
-8.4% | Cc1ccc(-c2c[n+](Cc3ccc(Cl)c(Cl)c3)c3n2CCC3)cc1
? | CCCCC(=O)Nc1ccc2oc(-c3cccnc3)nc2c1
-8.7% | O=S(=O)(c1ccc2c(c1)OCCO2)N1CCN(Cc2ccccc2)CC1
-2.3% | Cc1cc(C(=O)NNC(=S)NCC(C)C)cs1
-7.6% | CC(=O)Nc1ccc2c(c1)n(C)c(=O)n2C
31.6µM* | O=c1cnc2cnc(OCc3ccccc3)nc2n1Cc1ccc(F)cc1
-7.0% | CCOC(=O)C(C)Sc1nnc(NC(=O)c2ccc(C)c([N+](=O)[O-])c2)s1 (stereo unspecified)
-5.9% | O=C(NCCN1CCOCC1)c1cccc(Cl)c1
-11.2% | Cc1cc(=O)oc(C)c1C(=O)Nc1ccc2ncccc2c1
-15.2% | COc1ccccc1NC(=O)c1ccc(SCC(=O)NCc2ccccc2Cl)c([N+](=O)[O-])c1
-4.7% | CN(C)c1nc(N)nc(Nc2ccccc2C#N)n1
2.0% | Cc1c(N=C2SCC(=O)N2/N=C/c2ccccc2Cl)c(=O)n(-c2ccccc2)n1C
-8.1% | Cn1c(CCNC(=O)c2ccco2)nc2cc(NS(=O)(=O)c3ccc(Cl)cc3)ccc21
? | COc1ccc(OC)c(-c2cc(C(=O)Nc3c(C)nn(Cc4ccc(Cl)cc4)c3C)no2)c1
-11.5% | Brc1ccccc1-c1nnc(-c2cccnc2)o1
2.0% | CC(=O)N(CCCc1ccc(C(C)(C)C)cc1)CCCN(C)C
-14.4% | CCOc1ccc(OCC)c(NC(=O)C2CCCN(S(=O)(=O)c3cccs3)C2)c1 (stereo unspecified)
-12.5% | CC(=O)NC1=NN(C(C)=O)C2(CCCCC2)S1
-11.7% | Cc1cc(C)c(C)c(S(=O)(=O)N2C(=S)NC(=O)C2CC(C)C)c1C (stereo unspecified)
-26.1% | Cc1ccc(NC(=O)/C=C/c2ccc3c(c2)OCO3)cc1S(=O)(=O)N1CCOCC1
-6.7% | CC(N=c1ccccn1C(=O)Nc1ccc(F)cc1)c1ccco1 (stereo unspecified)
2.1% | N#Cc1ccc(OCC(=O)N2CCN(S(=O)(=O)c3cccs3)CC2)cc1
-10.8% | CCOc1ccc(NC(=O)CN2CCN(CC(=O)Nc3cc(OC)cc(OC)c3)CC2)cc1
0.8% | CCOc1ccccc1NC(=O)C1CCCN(C(=O)NCc2ccccc2)C1 (stereo unspecified)
-14.7% | CC1CCN(c2nc3c(c(=O)[nH]c(=O)n3C)n2CCCc2ccccc2)CC1
-10.9% | CN1CCCCc2c1nc1c(c2N)CCCC1
-13.5% | Cn1c(SCC(=O)OC2CCCCC2)nnc1-c1ccco1
-25.4% | CCOC(=O)C1=C(C)N(CC(C)C)C(=O)/C1=C\c1ccc(OCC(=O)Nc2ccccc2)cc1
-9.9% | CC(=O)N1[C@H](Cc2ccccc2)C=C[C@]1(C)C(=O)NCCN1CCOCC1
-18.1% | C=CCn1c(SCC(=O)Nc2ccc3c(c2)OCO3)nc2ccccc2c1=O

# Compounds shown so far containing a cyano group:
HPGD block | SMILES
-4.7% | CN(C)c1nc(N)nc(Nc2ccccc2C#N)n1
2.1% | N#Cc1ccc(OCC(=O)N2CCN(S(=O)(=O)c3cccs3)CC2)cc1

# Further records follow.
HPGD block | SMILES
-11.3% | CCOC(=O)N/N=C(/C)c1ccc([N+](=O)[O-])o1
-18.1% | CCOC(=O)c1sc(N)c(C#N)c1COC(=O)CNC(=O)c1ccccc1
-12.0% | CCC1=C(OC(=O)N(CC)CC)N2C(=O)OC(=NCC3CC3)[C@]2(Cc2ccccc2)[C@H]2C1=CC[C@H]1C(=O)N(c3ccccc3)C(=O)[C@H]12
-12.6% | Cc1ccccc1Cn1ccc(NC(=O)c2cnn3c(C(F)(F)F)cc(-c4ccco4)nc23)n1
20µM* | COC(=O)Cc1ccc(NC(=S)NCc2ccccc2)cc1
-26.9% | COc1nc(-c2ccccc2)ccc1-c1noc(-c2ccccc2)n1
0.6% | CON(C)c1nc(NCC(C)C)nc(OCC#N)n1
-26.3% | CC(=O)N(C1=C(O)c2ccccc2C(=O)C1=O)C1CCCCC1
-10.5% | CCn1cc(C2=NOC(C(=O)O)C2)c(C)n1 (stereo unspecified)
-10.1% | COCCOc1ccc(C(F)(F)F)cc1NC(=O)c1ccc(F)cc1
-9.3% | COc1cc(OC)cc(-c2nnc(SCC(=O)N(C(C)C)C(C)C)o2)c1
? | COc1ccc(S(=O)NC2CCCCC2)c(OC)c1C (stereo unspecified)
-17.3% | O=C(CN1C(=O)CCC1=O)Nc1ccc(Br)cc1
-13.0% | CC(C)CCNC(=O)c1cccc(S(=O)(=O)N2CCc3ccccc32)c1
-16.6% | O=S(=O)(NCCc1cn2ccccc2n1)c1ccc(F)c(C(F)(F)F)c1
7.08µM* | Cc1ccc(C(=O)OCc2nnc(-c3ccccc3)o2)o1
? | CCN(CC)Cc1c(O)ccc2c(-c3ccccc3)cc(=O)oc12
-1.7% | CN(C)CCCCOc1cccc(Br)c1
-3.2% | CN(Cc1nc2ccccc2n1C)C(=O)c1cccs1
-6.3% | CC12CN3CC(C)(CN(C1)C3c1ccc(Br)cc1)C2 (stereo unspecified)
-4.1% | O=C(NC1CCN(Cc2nnnn2CCc2ccccc2)CC1)c1ccccc1F
4.0% | CS(=O)(=O)N(CC(=O)NC1CCCCCC1)Cc1ccc(Cl)cc1
? | COCCn1c(N)c(C(=O)NCc2cccs2)c2nc3ccccc3nc21
31.6µM* | CC(=O)Oc1ccc(N2C(=O)C3C4C=CC(O4)C3C2=O)cc1 (stereo unspecified)
-3.2% | c1ccc2c(c1)CCCC2NC1=NCCC1 (stereo unspecified)
1.3% | Cc1noc(COc2ccccc2OCC(O)CNC(C)(C)C)n1 (stereo unspecified)
-6.3% | O=c1c(Cc2ccc(Cl)cc2)c(O)ccn1Cc1ccccc1
-1.3% | CCOc1ccccc1Oc1c(C)oc2cc(OC(=O)c3ccco3)ccc2c1=O
-24.2% | Cc1ccccc1-c1noc(-c2ccccc2F)n1
? | CCOc1ccc(/C=N/NC(=O)c2ccccc2NC(=O)c2ccc(OC)cc2)cc1
20µM* | CCc1c(C(=O)Nc2ccccc2)c(C)[nH]c(=S)c1C#N
-1.3% | O=C(Nc1ccccc1)C(=O)Nc1ccccn1
-0.6% | CC(=O)c1cccc(NC(=O)N2CCCC2C(=O)Nc2cc(C)ccc2C)c1 (stereo unspecified)
-22.0% | CCOc1ccc2nc(Cl)c(C3CC(c4ccccc4)=NN3C(=O)c3ccco3)cc2c1 (stereo unspecified)
-21.9% | CCOc1ccc2[nH]c(=O)c(CN(Cc3cccs3)Cc3nnnn3C(C)(C)C)cc2c1
-18.0% | Cc1cc(O)c(/C=N/c2ccccn2)c(=O)o1
-14.9% | CCC(=O)NC(NC(=S)Nc1c(C)n(C)n(-c2ccccc2)c1=O)C(Cl)(Cl)Cl (stereo unspecified)
-9.6% | CCN(CC)S(=O)(=O)c1csc(C(=O)NCc2ccccc2)c1
0.4% | CC1CN(C(=O)Cn2c(C(F)(F)F)nc3ccccc32)CC(C)O1 (stereo unspecified)
-12.9% | O=C(/C=C/c1cnc2ccccc2n1)NC12CC3CC(CC(C3)C1)C2
-11.8% | COCCCN(C(=S)Nc1cccc(Cl)c1)C(C)c1ccncc1 (stereo unspecified)
? | CC1(C)Cc2c(c(-c3ccco3)nc3n[nH]c(N)c23)CO1
-16.1% | COC(=O)c1ccc(C)c(NC(=O)CCSc2ccc(Cl)cc2)c1
-13.9% | COc1ccc(CC(=O)Nc2nc(-c3cccnc3)cs2)cc1
